Bead autofluor = counter-screen for toxin protease inhibitors: compound fluorescence; compound autofluorescence counterscreen, microsphere flow cytometry; stronger effect = higher value; fluorescence intensity (no concentration beside the values); 3.1% of 360,000 active;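 active = at least 3 SD above the mean of all compounds, about 16000 in these data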;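 note: 100 nL of 1 mM stock went into each well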
* hit, by the source's call. This is a subset; count on the stated rates, not on these rows.

Compound | Bead autofluor
Cc1cc(C)c(N2C(=O)CC(Sc3ccccc3N)C2=O)c(C)c1 (configuration not stated) | 3938
CC(Sc1nnc(-c2ccccc2F)n1C)C(=O)Nc1ccc(N2CCOCC2)cc1 (configuration not stated) | 3888
COC1CC(NC(C)=O)C(OC(=O)c2ccccc2)C(CBr)O1 (configuration not stated) | 3801
CCCCN1C[C@H](C)[C@@H](CC(=O)NC)C1=O | 3233
Cc1cccc(OCc2nnc(SCC(=O)NCc3ccc4c(c3)OCO4)o2)c1 | 3706
C[C@H]1CN([C@@H](C)CO)C(=O)c2c(c3ccccc3n2C)-c2ccccc2CO[C@H]1CN(C)C(=O)[C@@H]1CCCN1C | 3119
CC(Nc1ccc(Br)cc1)C(=O)NC(=O)NC1CCCCC1 (configuration not stated) | 4325
CCc1nc2ccc(C(=O)Nc3cccc(OC)c3)cn2c1N(CC)CCN(C)C | 3553
COC(=O)CN1C(=O)COc2ccc(S(=O)(=O)N3CCCCC3)cc21 | 4147
CC(=O)NC(C)(c1ccccc1)c1nc(-c2cccc3cccnc23)cs1 (configuration not stated) | 3762
CCc1nc2c(OCC(=O)c3ccc(Cl)cc3Cl)cccn2c1N(C=O)Cc1ccccc1 | 3271
C[C@H]1CN([C@@H](C)CO)S(=O)(=O)c2ccc(Br)cc2O[C@H]1CN(C)C(=O)Cc1ccccn1 | 3033
COCCN(Cc1ccc(OC)cc1)c1c(C)nc2ccc(C(=O)Nc3ccc(NC(C)=O)cc3)cn12 | 3528
Cc1ccccc1-c1csc(C(O)c2ccc(F)c(F)c2)n1 (configuration not stated) | 3695
O=C(C1CCCCC1)N1C[C@@H](O)[C@H](n2cc(C3CC3)nn2)C[C@@H]1c1ccc(Cl)cc1 | 2876
O=C1c2ccccc2-n2nnc(-c3ccccc3)c2C2c3ccccc3CCN12 (configuration not stated) | 4100
COc1ccccc1CN(C)C[C@@H]1OCc2cnnn2CCCC(=O)N([C@@H](C)CO)C[C@H]1C | 3569
COC(=O)[C@@H](NS(=O)(=O)c1ccc(F)cc1Br)C(C)C | 3316
Cc1ccc(NC(=O)c2cc(S(=O)(=O)N3CCCCC3)ccc2N2CCOCC2)cc1 | 3866
CCCCn1c(N)c(N(CCOC)C(=O)CCS(=O)(=O)c2ccc(C)cc2)c(=O)[nH]c1=O | 3975
CCN1CCN(C(C(=O)NC2CCCCC2)c2ccnc3ccccc23)CC1 (configuration not stated) | 5644
COc1cccc(C(=O)N2CCC2(C)C(=O)NC(C)C)c1 (configuration not stated) | 4027
COc1ccc(-c2cnc(C(O)c3ccc(C(C)(C)C)cc3)[nH]2)cc1 (configuration not stated) | 2975
CCOC(=O)C1(C)CCN1C(=O)c1cc2ccccc2s1 (configuration not stated) | 3670
CCOC(=O)N1CCN(C(c2ccnc3ccccc23)c2nnnn2-c2ccc3c(c2)OCCO3)CC1 (configuration not stated) | 5554
CSc1ncnc2c1ncn2CCCNCc1ccco1 | 3408
COc1cc(CNC[C@H]2O[C@@H](n3ccc(N)nc3=O)[C@H](O)[C@@H]2O)ccc1OCc1ccc(C)cc1 | 3821
O=c1cc(CN2CCN(c3ccccc3F)CC2)c2c(ccc3ccccc32)o1 | 6309
COc1ccc(CCCNC(=O)C2(C)Cc3c(-c4ccc5c(c4)OCO5)ccnc3O2)cc1 (configuration not stated) | 3027
COc1ccc(CN2C(=O)c3ccccc3C2c2nnnn2-c2c(C)cccc2C)cc1OC (configuration not stated) | 4649
COCCCN1C(=O)C(CC(=O)NCCN2CCOCC2)CC(C(=O)N(C)C)=C1C (configuration not stated) | 5743
CCC1NC(=O)c2cccnc2-n2c1nc1ccc(F)cc1c2=O (configuration not stated) | 3018
OC(c1cccc(CN2CCCCC2)c1)c1ncc(-c2ccccc2Cl)[nH]1 (configuration not stated) | 2960
CCOc1ccc(CCN2C(=S)N([C@@H](Cc3ccccc3)CN3CCC[C@@H]3CN3C(=S)NC[C@@H]3CC(C)C)C[C@@H]2Cc2ccccc2)cc1 | 6345
CS(=O)(=O)N1CCCCC1c1cc(C(=O)Nc2ccccc2Cl)no1 (configuration not stated) | 3725
COc1cccc(CNC(=O)c2ccc(S(=O)(=O)N3CCCCC3)cc2)c1 | 3688
COc1ccccc1CC1(C)C(=O)Nc2ccc(S(=O)(=O)NC3CCCCC3)cc21 (configuration not stated) | 3052
CCCc1c(C(=O)N/N=C(\C)c2ccccc2O)nnn1-c1nonc1N | 2974
CC1(Cc2cc(Cl)ccc2C(F)(F)F)C(=O)Nc2ccc(OC(F)(F)F)cc21 (configuration not stated) | 3628
Cc1ncccc1C(=O)N1CCCC(c2cc(C(=O)Nc3ccc(C(C)(C)C)cc3)no2)C1 (configuration not stated) | 3708
CNc1cncc(-c2ccc(CN3CCOCC3)cc2)n1 | 3721
COc1cccc(CNc2nc3cc(-c4ccccc4)sc3c(=O)n2C)c1OC | 3724
COc1ccc(C(O)c2nc(-c3ccc4c(c3)OCO4)cs2)cc1 (configuration not stated) | 2973
CCN(CC)C(=O)c1ccc2sc([C@@H]3O[C@H](CO)[C@H](O)[C@H](O)[C@H]3O)nc2c1 | 2897
CC(C)(C)c1ccc(C(O)c2ncc(-c3ccc4ccccc4c3)[nH]2)cc1 (configuration not stated) | 3874
CCOC(=O)C1(C)CCN1C(=O)c1ccc(OC)cc1OC (configuration not stated) | 3924
CC(C)CNC(=O)C1(C)CCCN1C(=O)c1cncc(Br)c1 (configuration not stated) | 2702
COc1ccc(C(=O)N2CCOC2CNC(=O)C(=O)NCc2ccccc2)cc1 (configuration not stated) | 4034
CC1(C(=O)NS(=O)(=O)c2ccc(Cl)cc2)CCN1C(=O)Cc1ccccc1 (configuration not stated) | 3671
CC1(C(=O)NCc2cccc(C(F)(F)F)c2)CCN1Cc1ccc2ccccc2c1 (configuration not stated) | 3532

Later entries.
Compound | Bead autofluor
CCc1nc2ccc(C(=O)NCCN3CCOCC3)cn2c1N(CCC(C)C)CCN(C)C | 3688
CN1CCN(C(=O)C2=NOC3(C2)C(=O)Nc2ccccc23)CC1 (configuration not stated) | 6230
CCOC(=O)c1cc(=O)nc(N)s1 | 4048
CN(Cc1ccccc1)C(=O)Cn1nnc(-c2ccccc2)c1COc1ccc2ccccc2c1 | 4580
CCCCNC(=O)C1(C)CCCCN1C(=O)c1ccc(C#N)cc1 (configuration not stated) | 3230
COc1cc(-c2cc3nc(NCCc4ccc(S(N)(=O)=O)cc4)ccn3n2)cc(OC)c1OC | 2959
Cc1ccc(-n2ncc(-c3n[nH]c(=S)o3)c2N)cc1C | 3832
CC(C)C[C@H]1CN([C@@H](CC(C)C)CN2CCC[C@H]2CN2C(=O)C(=O)NC[C@@H]2Cc2ccccc2)C(=O)C(=O)N1CCc1ccccc1 | 6167
CCOc1c(Br)cc(C(=O)Nc2cccc(S(=O)(=O)N3CCOCC3)c2)cc1OC | 3842
COc1ccc(-n2nnnc2C(CCc2ccccc2)N2CCC3(CC2)C(=O)NCN3c2ccccc2)cc1 (configuration not stated) | 5295
COc1ccc(CN2CCCC(C(=O)N3CCCC3)C2)c(OC)c1OC (configuration not stated) | 2745
CC(C)(C)C(=O)c1c(N)[nH]c(C(=O)c2ccccc2)c1-c1ccc(C(F)(F)F)cc1 | 4489
CCOC(=O)C1(C)CCCN(C(=O)c2ccc(F)c(Cl)c2)C1 (configuration not stated) | 3584
COc1ccc(OC)c(C(O)c2ncc(-c3cccc(C(F)(F)F)c3)[nH]2)c1 (configuration not stated) | 3891
CCCC[C@@H]1CC2=C(C(=O)OC(C)(C)O2)[C@@H](c2ccc(Cl)cc2)O1 | 6592
COc1ccc(Cn2cc(CN3CCOCC3)nn2)cc1 | 5761
Cc1cc(C)cc(C(O)c2ncc(-c3cccc(C(F)(F)F)c3)[nH]2)c1 (configuration not stated) | 4078
CCc1nc2ccc(C(=O)NCc3ccc(OC)cc3)cn2c1N(C)Cc1ccc(OC)cc1 | 4250
CSc1ccc(Cn2c(C)c(C(=O)NCc3ccccc3C(F)(F)F)sc2=O)cc1 | 4168
COc1ccccc1C(=O)NCCN1CCCC1 | 4092

Overlap with the part before: 4 compounds, followed by the next part.
Compound | Bead autofluor
Cc1cc(C)cc(C(O)c2ncc(-c3cccc(C(F)(F)F)c3)[nH]2)c1 (configuration not stated) | 4078
CCc1nc2ccc(C(=O)NCc3ccc(OC)cc3)cn2c1N(C)Cc1ccc(OC)cc1 | 4250
CSc1ccc(Cn2c(C)c(C(=O)NCc3ccccc3C(F)(F)F)sc2=O)cc1 | 4168
COc1ccccc1C(=O)NCCN1CCCC1 | 4092
Cc1cc2nc(C3CCCCC3)c(Cc3cccc(F)c3)n2c(C)c1Br | 5494
CCOC(=O)C1=CCN(S(=O)(=O)c2cccc(Cl)c2)C1c1cccc(C)c1 (configuration not stated) | 4230
COc1ccc([C@H]2C[C@H](O)[C@@H](n3cc(-c4ccc(F)cc4)nn3)CN2C(=O)c2cccs2)cc1 | 3645
CCOc1ccccc1NC(=O)c1ccc2c(O)c(S(=O)(=O)c3ccccc3)c(=O)[nH]c2c1 | 3428
CC(=O)NC(C)(c1ccccc1)c1nc(-c2cccc(C#N)c2)cs1 (configuration not stated) | 3992
Cc1ccccc1CN1C(=O)c2ccccc2C1c1nnnn1-c1ccc2c(c1)OCCO2 (configuration not stated) | 5917
OC(c1ccccc1)(c1nc(-c2ccc(Cl)cc2)cs1)C(F)(F)F (configuration not stated) | 2909
Nc1ncc(-c2ccc(-c3ccccc3)cc2F)cc1-c1ccccc1F | 3391
Cc1cc(-c2ccncc2)n2ncc(-c3ccccc3)c2n1 | 2939
CCc1nc2ccc(C(=O)NCCOc3ccc(OC)cc3)cn2c1N(C)C(=O)COc1ccccc1 | 3953

SMILES: CC1C(c2ccccc2)=Nn2c(=O)n(-c3ccccc3)c(=O)n21 (configuration not stated)
  Bead autofluor: 4015

SMILES: CN1CCN(C(=O)C2Cc3c(-c4cccc(F)c4)ccnc3O2)CC1 (configuration not stated)
  Bead autofluor: 3655

SMILES: COc1ccc(NC(=O)C2(C)CCN2Cc2ccc(SC)cc2)cc1OC (configuration not stated)
  Bead autofluor: 3420

SMILES: CCc1nc2c(OCCn3cccc3)cccn2c1N(C)C(=O)c1ccc(OC)cc1
  Bead autofluor: 3942

SMILES: O=C(NCCc1ccccc1)c1cc(S(=O)(=O)N2CCCCC2)c[nH]1
  Bead autofluor: 4342

SMILES: Cc1ccc(S(=O)(=O)N2C[C@H]3C(=O)C[C@@H](c4ccccc4F)N(S(=O)(=O)c4ccc(C)cc4)[C@H]3C[C@H]2c2cccc3ccccc23)cc1
  Bead autofluor: 3682

SMILES: O=C1Nc2ccccc2N=C(c2ccc3c(c2)OCO3)C1N(CCc1ccccc1)C(=O)CSc1ncccn1 (configuration not stated)
  Bead autofluor: 5966

SMILES: COc1cccc(NC(=O)C2(C)CCN2C(=O)C2CCCCC2)c1 (configuration not stated)
  Bead autofluor: 3382

SMILES: O=S1(=O)C[C@@H](N2CCC[C@@H]2CO)[C@H](COCc2ccccc2)N1
  Bead autofluor: 5908

SMILES: COc1cccc(C(O)c2ncc(-c3ccc(Cl)cc3)[nH]2)c1 (configuration not stated)
  Bead autofluor: 2857

SMILES: Cc1nc2ccc(C(=O)N(C)Cc3ccco3)cn2c1N(C)CC1CCCCC1
  Bead autofluor: 2885

SMILES: CCN(CC)C(=O)C1=C(C)N(CCCOC)C(=O)C(CC(=O)NCc2ccco2)C1 (configuration not stated)
  Bead autofluor: 3576

SMILES: CCCCNC(=O)C1(C)CCCCN1C(=O)c1c(Cl)cccc1Cl (configuration not stated)
  Bead autofluor: 3738

SMILES: CC(C)C[C@H]1CN([C@@H](Cc2ccccc2)CN2CCC[C@@H]2CN2C(=O)C(=O)NC[C@@H]2Cc2ccc(O)cc2)C(=O)C(=O)N1CCc1ccccc1
  Bead autofluor: 5351

SMILES: CCN(C)C1CN(Cc2cn(CCCC(=O)OC)nn2)S(=O)(=O)C1 (configuration not stated)
  Bead autofluor: 5587

SMILES: COc1ccc2c(CC(=O)Nc3ccc4nc(N5CCOCC5)sc4c3)coc2c1
  Bead autofluor: 3393

SMILES: Cc1cccc(C)c1-n1nnnc1C(c1ccnc2ccccc12)N1CCN(CC(=O)NC(C)C)CC1 (configuration not stated)
  Bead autofluor: 5199

SMILES: COc1ccc(NC(=O)CN2C(=O)NC(C)(c3ccccc3)C2=O)cn1 (configuration not stated)
  Bead autofluor: 4015

SMILES: C[C@H]1CN([C@@H](C)CO)C(=O)CCCn2nncc2CO[C@@H]1CN(C)Cc1ccc2c(c1)OCO2
  Bead autofluor: 3427

SMILES: CCCCNC(=O)c1ccc2nc(CC)c(N(C)Cc3cccs3)n2c1
  Bead autofluor: 4028

SMILES: CCc1nc2c(OCc3cccc(Cl)c3)cccn2c1N(C)C(=O)c1ccco1
  Bead autofluor: 4356

SMILES: O=C1NC[C@@H](CCCCN2CCN(CC3CCCCC3)C(=O)C2=O)N(CCC2CCCCC2)C1=O
  Bead autofluor: 5225

SMILES: O=C(NCc1ccccc1)c1cc(C2CCCN(C(=O)C3CC3)C2)on1 (configuration not stated)
  Bead autofluor: 3926

SMILES: Cc1ccccc1-c1cnc(C(O)c2ccc(-c3ccccc3)cc2)[nH]1 (configuration not stated)
  Bead autofluor: 2839

SMILES: CC(C)C[C@@H](COCc1ccc(Cl)cc1)N1CCN(C(=O)c2ccc(Cl)cc2Cl)CCC1=O
  Bead autofluor: 4696

SMILES: c1ccc2c(c1)Sc1cnccc1N2CC1CO1 (configuration not stated)
  Bead autofluor: 3919

SMILES: CC(C)(C)c1ccc(C(=O)N2CCC2(C)C(=O)NCc2cccs2)cc1 (configuration not stated)
  Bead autofluor: 3731

SMILES: C[C@H]1CN([C@@H](C)CO)C(=O)CCCn2nncc2CO[C@H]1CN(C)S(=O)(=O)c1ccc(-n2cccn2)cc1
  Bead autofluor: 3685

Not a retest: an excerpt of the list.
SMILES: Cc1cccc(C)c1-n1nnnc1C(c1ccnc2ccccc12)N1CCN(CC(=O)NC(C)C)CC1 (configuration not stated)
  Bead autofluor: 5199

SMILES: COc1ccc(NC(=O)CN2C(=O)NC(C)(c3ccccc3)C2=O)cn1 (configuration not stated)
  Bead autofluor: 4015

SMILES: C[C@H]1CN([C@@H](C)CO)C(=O)CCCn2nncc2CO[C@@H]1CN(C)Cc1ccc2c(c1)OCO2
  Bead autofluor: 3427

SMILES: CCCCNC(=O)c1ccc2nc(CC)c(N(C)Cc3cccs3)n2c1
  Bead autofluor: 4028

SMILES: CCc1nc2c(OCc3cccc(Cl)c3)cccn2c1N(C)C(=O)c1ccco1
  Bead autofluor: 4356

SMILES: O=C1NC[C@@H](CCCCN2CCN(CC3CCCCC3)C(=O)C2=O)N(CCC2CCCCC2)C1=O
  Bead autofluor: 5225

Bioassay records: PubChem BioAssay, NMMLSC
